Mtb growth – Confirmatory growth inhibition assay against Mycobacterium tuberculosis H37Rv, potency (AID 1949); most inactive calls were filed without a number and no value below 0 was filed; inhibition, % at 10 µg/mL, or IC50 in µg/mL where a hit was titrated; hit rate 1.6% among 100,000;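 active = confirmed in a dose series; inconclusive = about 50% or more but not retested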;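 also: bacteria grown 7 days with compound before Alamar blue readout; 0% = untreated bacteria and 100% = reference antibiotic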
Numbers without * were called inactive; i = inactive; ? = inconclusive. The list is partial, so the mix of outcomes need not match the whole.

compound | Mtb growth
N#CC1=C(SCC(=O)Nc2cccc(S(=O)(=O)N3CCCCC3)c2)NC(=O)CC1c1ccccc1F (stereo not given) | i
COc1ccc2c(=O)cc(C(F)(F)C(F)(F)F)oc2c1 | i
CS(=O)(=O)N(CC(=O)N1CCCCCC1)c1ccccc1 | i
CCOC(=O)c1c(NC(=O)c2ccco2)sc2c1CCCC2=O | i
CC(C)N1C(=O)C(O)(CC(=O)c2cccnc2)c2ccccc21 (stereo not given) | i
CC1(C)CC(=O)c2sc(NC(=O)c3ccccc3)nc2C1 | i
O=S1(=O)N=C(N2CCN(c3ccc(F)cc3)CC2)c2ccccc21 | i
CC1CCN(C(=O)C2CCN(S(=O)(=O)c3ccc(Br)cc3)CC2)CC1 | i
CCN1CCCC1CNCc1cccc(OC)c1OCc1ccccc1 (stereo not given) | 3%
O=C(O)CSCc1ccc(Br)cc1 | i
COC(=O)c1cccc(NC(=S)Nc2ccccc2)c1C | i
CN1CCN(CC(O)CN2c3ccccc3Sc3ccccc32)CC1 (stereo not given) | i
S=C(NCCc1ccccc1)N1CCc2ccccc21 | i
COCC(=O)n1nc(NCc2ccc(OC)cc2)nc1NCc1ccc(OC)cc1 | i
Cc1ccc(-c2cc(C(=O)Nc3cccnc3)c3ccccc3n2)s1 | i
CCCCN1C(=O)NC(=O)/C(=C\c2cc(OC)c(O)c(OC)c2)C1=O | 4%
O=C(Nc1ccc(F)c(Cl)c1)OCc1ccccc1 | 14%
CC(=O)CSc1nc2scc(-c3ccc(C)o3)c2c(=O)n1-c1ccccc1 | 0%
Cc1cccc(NC(=S)N2CCN(c3cccc(Cl)c3)CC2)c1C | i
COc1cc([N+](=O)[O-])ccc1NC(=S)Nc1ccc(OC(F)F)c(Cl)c1 | 3.4µg/mL*
Cc1cc(=O)oc2ccc(OC(=O)COc3ccc(F)cc3)cc12 | i
COc1ccc(NC(=S)NNC(=S)Nc2ccc(Cl)cc2)cc1OC | i
N#C/C(=C\c1ccc(-c2ccccc2C#N)o1)C(N)=S | i
COC(=O)c1c(NC(=O)c2nc3nc(C)cc(C(F)F)n3n2)sc2c1CCC2 | 4%
COc1ccc(S(=O)(=O)NCc2ccccc2)cc1C | 6%
O=C(CSc1nc2scc(-c3ccco3)c2c(=O)n1-c1ccccc1)N1CCCCCC1 | i
Cc1cc(-c2ccccc2)nc(SCc2ccc(C(=O)O)o2)n1 | i
Cc1cccc(-n2c(-c3ccccc3F)n[nH]c2=S)c1C | i
CCCN1C(=O)c2ccc(C(=O)NC3CCCCC3)cc2C1=O | i
S=C(Nc1cccc(Cn2cc(Cl)cn2)c1)NC1CCCCC1 | i
Cc1ccc(C)c(NC(=O)c2ccc(S(=O)(=O)N3CCCC3)cc2)c1 | i
CC(C)CN(CC(C)C)C(=O)c1ccc(Cl)cc1Cl | i
CN(Cc1ccccc1)C(=O)COc1ccc2ccccc2c1Br | i
O=C(COc1ccc(Cl)cc1Cl)Nc1ccc(C(=O)O)cc1 | i
COc1cccc2cc(C(=O)Oc3ccc(Cl)cc3)c(=O)oc12 | i
CC(C)c1nnc(NC(=O)COc2ccc(Cl)cc2)s1 | i
CCOC(=O)C1CCN(C(=O)COc2ccc(Br)cc2C)CC1 | i
Cc1c(C(C)NC(=S)Nc2ccccc2C(F)(F)F)cnn1C (stereo not given) | i
COC(=O)c1sccc1NC(=O)CCC1CCCC1 | i
O=C1CC(c2ccccc2)Sc2nc(-c3ccc(Cl)cc3)nn21 (stereo not given) | 5%
Cc1cc(C(=O)Nc2ccc3c(c2)CCC3)cs1 | 40%
Cc1cc(C)cc(C(=O)NC2CC(C)(C)NC(C)(C)C2)c1 | i
NC(=O)Cn1cc(C(=O)c2cccs2)c2ccccc21 | i
Cc1ccc(C(=O)Nc2cc(C)c(C)cc2[N+](=O)[O-])cc1 | i
Cc1cccc(C)c1OCC(=O)NCc1ccncc1 | i
CCOC(=O)C1CCN(C(=O)CSCc2ccc([N+](=O)[O-])cc2)CC1 | i
O=C1OC2(c3ccc(F)cc3)C(OC(=O)C23CCCC3)C12CCCC2 (stereo not given) | i
CC(C)OC(=O)c1sc2cc(Cl)ccc2c1Cl | i
COc1ccc(NC(=O)CN2C(=O)C3C4CCC(C4)C3C2=O)cc1 (stereo not given) | i
COC(=O)c1ccccc1NC(=O)c1cc(C)ccc1C | 31%
CC(CNC(C)c1ccccc1)C(=O)O (stereo not given) | i
OCC1CCCN1CC12CC3CC(CC(C3)C1)C2 (stereo not given) | i
COc1ccc(CNC(=O)C(=O)Nc2cc(Cl)cc(Cl)c2)cc1 | i
O=C(Nc1nc2c(ccc3ccccc32)s1)c1ccc(S(=O)(=O)N2CCCC2)cc1 | i
COc1cc(S(=O)(=O)NC2CC(C)(C)NC(C)(C)C2)ccc1F | i
O=C(Nc1ccccc1Cl)c1ccc2ccccc2c1 | 5%
COc1ccc(C(CC(=O)NCc2ccco2)c2ccccc2)cc1 (stereo not given) | 4%
O=C1C2CCN(CC2)C1Cc1ccc(OCc2ccccc2)cc1 (stereo not given) | 1%
Cc1ccc(NC(=O)COc2ccccc2Br)cc1C | i
O=C(CCn1cnc2ccccc2c1=O)Nc1ccc2c3c(cccc13)CC2 | i

More compounds
compound | Mtb growth
CCn1c(SCC(=O)N2CCc3ccccc32)nnc1-c1ccc(C)c(Cl)c1 | 0%
Fc1ccc(C2=CC(c3ccc(Br)o3)n3nnnc3N2)cc1 (stereo not given) | i
Cc1cc(C)nc(Sc2nc([N+](=O)[O-])nn2C)n1 | 5%
COC(=O)Cn1cc(C(=O)C2CC2)c2ccccc21 | 2%
Cc1c(C(=O)Nc2ccc(Cl)cc2)csc1-c1ccccc1 | i
Cc1cc(C)c(NC(=O)CN(Cc2ccc(F)cc2)S(=O)(=O)c2ccccc2)c(C)c1 | 2%
CC(C)NCCOCCOc1cccc(Cl)c1Cl | i
CCOCCCNC(=O)C(Cc1ccccc1)NC(=O)c1ccco1 (stereo not given) | i
CCN(CC)CCCOc1cccc(C(C)=O)c1 | 4%
CCOC(=O)N1CCN(S(=O)(=O)c2cc(C)ccc2OC)CC1 | i
COC(=O)c1ccccc1NC(=O)c1cc(Br)cc(C)c1OC | 28%
C=CCn1c(SCC(=O)Nc2cc(Cl)ccc2C)nnc1-c1ccccc1O | 1%
COC(=O)c1ccc(N2C(=O)CC(SCCc3nc4ccccc4[nH]3)C2=O)cc1 (stereo not given) | i
CCN(CC)c1ncnc2c1sc1nc3c(cc12)COC(C)(C)C3 | 4%
CC(C)(C)C(=O)O/N=C(\N)c1ccccn1 | i
COc1ccc(CC(=O)O/N=C(\N)c2cccc(C)c2)cc1OC | 0%
Cc1ccc(OCCN2CCOCC2)c([N+](=O)[O-])c1 | i
O=C(NS(=O)(=O)c1cccs1)c1ccccc1Cl | 0%
Cc1cc(S(=O)(=O)N(C)c2ccccc2)ccc1F | i
COc1cccc(OC)c1C(=O)Nc1ccc(C(=O)OC2CCCCC2)cc1 | i

Reprinted at random: 3 records from the list
compound | Mtb growth
Cc1c(C(=O)Nc2ccc(Cl)cc2)csc1-c1ccccc1 | i
CCN(CC)CCCOc1cccc(C(C)=O)c1 | 4%
CCOCCCNC(=O)C(Cc1ccccc1)NC(=O)c1ccco1 (stereo not given) | i

(next part)
compound | Mtb growth
Cc1c(Cl)cccc1NC(=O)CSCC(N)=O | i
Cc1cc(=O)[nH]c(SCC(=O)Nc2ccccc2C(F)(F)F)n1 | i
Cc1cc(OCCCN2CCOCC2)ccc1C(C)C | i
O=c1[nH]c(C(F)(F)F)nc2c1c(=O)[nH]c1sc(-c3cccs3)cc12 | i
S=C(c1ccc(C(=S)N2CCCCC2)cc1)N1CCCCC1 | i
O=C(CCN1C(=O)c2cccc3cccc(c23)C1=O)N1CCN(C/C=C/c2ccccc2)CC1 | ?
CCCC1C(=O)NC(=S)N(c2ccccc2)C1=O (stereo not given) | 10%
Cc1ccc(C)c(OCC(=O)Nc2ccc(N3CCOCC3)cc2)c1C | 3%
Cc1cc(C)c(C)c(COc2ccc3ccc(=O)oc3c2)c1C | i
COc1ccc(C(=O)Nc2ccc(Cl)cc2C(=O)Nc2ccc(C)cc2C)cc1 | i
CCOC(=O)c1ccc(NC(=O)CN2CCN(C)CC2)cc1 | i
Cc1sc(NC(=O)c2cnccn2)c(C(N)=O)c1-c1ccccc1 | i
Cc1ccc(NC(=O)CN(Cc2ccccc2C)S(=O)(=O)c2ccc(Cl)cc2)cc1 | 1%
O=C(c1ccc(Br)cc1)N1CCN(C2=NS(=O)(=O)c3ccccc32)CC1 | i
CCCCC(=O)NC1=C(C(=O)OCC)C2(CCCCC2)Cc2ccccc21 | 3%
O=C(COc1ccc(Cl)cc1)NC(=S)Nc1ccccc1N1CCOCC1 | i
COc1cccc(C(=O)Nc2ccc(Br)cc2Cl)c1 | i
CCCC1Cc2[nH]c(=O)c(C#N)cc2CO1 (stereo not given) | i
CCOC(=O)N1CCN(C(=O)c2ccccc2N(Cc2ccccc2)S(=O)(=O)c2ccc(OC)cc2)CC1 | i
Cc1ccc(C(C)NC(=O)Cc2cccs2)cc1C (stereo not given) | i
CCOCCCNC(=O)Cc1ccc(OC)c(OC)c1 | i
COC(=O)c1ccccc1NC(=O)CSc1n[nH]c(-c2ccncc2)n1 | i
CC1=C(C(=O)OC(C)C)C(c2ccsc2)NC(=O)N1C (stereo not given) | i
Cc1cc(Br)ccc1OCC(=O)Nc1ccc(Cl)cn1 | i
COc1ccc(CCNC(=O)Oc2ccccc2)cc1OC | i
CCCCn1c(-c2cc(OC)c(OC)c(OC)c2)n[nH]c1=S | i
N#CC(C(=O)NCc1ccccc1)c1ccccc1 (stereo not given) | i
Cc1cccc(C)c1OCCOCC(O)CN1CCc2ccccc2C1 (stereo not given) | 0%
O=C(NCc1ccccc1)c1cccc(NC(=S)NCc2ccco2)c1 | i
COc1ccc2c(c1)OC(C)C1=C2CCC2(C)C1=CCC2OC(C)=O (stereo not given) | i
CCOc1ccccc1OCCOCCNCc1ccccc1 | i
Cn1c(SC/C=C/c2ccccc2)nnc1-c1cccs1 | 2%
N#CC1=C(N)NC(S)=C(C#N)C12CCCCC2 | 1%
COc1ccc(CN2CCN(Cc3cccc(Br)c3)CC2)cc1 | i
CCOc1cc(CNc2ccc(O)cc2)cc(Cl)c1OCc1ccccc1F | 21%
COC(=O)c1ccc(NC(=S)NCc2ccco2)cc1 | i
CC1=CC(C)(C)N(C(=O)C(Sc2nnc(C)s2)c2ccccc2)c2cc(C)c(C)cc21 (stereo not given) | 8%
Cc1cc(C)nc(NC(=O)Cc2ccc([N+](=O)[O-])cc2)c1 | i
COc1ccc2c(c1)c(=O)oc1c(C)c(OCC(=O)N(C)C3CCCCC3)ccc12 | i
O=C(CSc1nc2ccccc2[nH]1)Nc1ccc(Cl)cn1 | i
CC(=O)c1ccc(NC(=O)C2(C)CC2(Cl)Cl)cc1 (stereo not given) | i
CCOc1ccc(C(=O)NNC(=O)Nc2cccc(Cl)c2C)cc1OCC | i
CCC(C)c1ccc(NC(=S)N2CCN(c3ccc([N+](=O)[O-])cc3)CC2)cc1 (stereo not given) | i
Cc1ccc(S(=O)(=O)N(CC(=O)Nc2ccc(Br)c(C)c2)c2ccccc2F)cc1 | i
CC(C)CC(=O)NC(c1ccc([N+](=O)[O-])cc1)c1c(O)ccc2ccccc12 (stereo not given) | i
Cc1cccc(CN(CC(=O)NCc2cccnc2)S(=O)(=O)c2ccc(Cl)cc2)c1 | 5%
CC(C)CN1CCC(C(=O)N2CCN(c3ccccc3F)CC2)CC1 | 1%
CCCC1CCc2c(sc(NC(=O)c3ccco3)c2C(N)=O)C1 (stereo not given) | i
O=C(NC12CC3CC(CC(C3)C1)C2)N1CCN(C(=O)NC23CC4CC(CC(C4)C2)C3)CC1 | i
CCOC(=O)c1ccc(NC(=O)CSc2nc3sc(C)c(C)c3c(=O)[nH]2)cc1 | i
CCOC(=O)c1ccc(-n2sc3c(c2=S)-c2cc(C)cc4c2N(C(=O)C4=O)C3(C)C)cc1 | 33%
COc1ccc([N+](=O)[O-])cc1CSc1nnnn1Cc1ccccc1 | i
CCc1c(C)sc(NC(=O)Nc2ccc(Cl)c(Cl)c2)c1C(N)=O | i
Cc1sc2nc(SCC(=O)Nc3ccccc3)n(-c3ccccc3)c(=O)c2c1-c1ccccc1 | i
O=C(c1ccc(N2C(=O)CCC2=O)cc1)N1CCOCC1 | i
O=C(NC(=S)Nc1ccc(-c2nc3ccccc3o2)c(O)c1)c1ccc(Br)cc1 | 1%
COc1cc(NS(=O)(=O)c2ccc(OC)c(C)c2C)c(OC)cc1Cl | i
Cc1ccc(-n2c(C)nc(N)c2C(=O)c2ccccc2)cc1 | i
COc1cc(CN2CCN(S(=O)(=O)c3ccc(Cl)cc3)CC2)cc(OC)c1O | i
Cc1ccc(C(C)(C)C)c(OCCCCN2CCCCC2)c1 | i
CCOc1ccc(CCNC(=O)c2c(-c3ccccc3Cl)noc2C)cc1OCC | i
CCOc1ccc2nc(SCCNS(=O)(=O)c3cccc([N+](=O)[O-])c3)sc2c1 | i
Clc1ccc(OCCOCCN2CCCC2)cc1Cl | i

6 entries already listed, arranged by molecular weight, ascending.
compound | Mtb growth
CCOCCCNC(=O)Cc1ccc(OC)c(OC)c1 | i
O=C(CSc1nc2ccccc2[nH]1)Nc1ccc(Cl)cn1 | i
COc1ccc(CC(=O)O/N=C(\N)c2cccc(C)c2)cc1OC | 0%
COc1cccc(C(=O)Nc2ccc(Br)cc2Cl)c1 | i
CCOC(=O)C1CCN(C(=O)CSCc2ccc([N+](=O)[O-])cc2)CC1 | i
COc1ccc(NC(=S)NNC(=S)Nc2ccc(Cl)cc2)cc1OC | i

Compound activity deposited in PubChem by Southern Research Institute.
